Rango release inh: qHTS Assay for Inhibitors of RanGTP induced Rango (Ran-regulated importin-beta cargo) - Importin beta complex dissociation; Potency, µM (titrated, usually from 46.1 µM), for inactives: at the highest dose activity change, negative = inhibition; Biochemical FRET Rango-importin beta, RanGTP-induced dissociation; 0.071% of 340,000 active; AID 540253, 2011; Snurportin-1 (Homo sapiens) + GTP-binding nuclear protein Ran (Homo sapiens) + Importin …; active means falling FRET ratio curve, often poorly fitted, with flat reads before Ran was added; inconclusive means other falling curves, or compound fluorescence or quenching; inactive means flat or rising ratio curve;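 further: potency means the concentration at half of the fitted maximal effect; % of control where 0% means no effect; nearly all actives have a fitted effect of over 45% in size; -100% = wells without RanGTP and RCC1; the record marks most hits as doubtful in a second field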
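FRET read at 45 min, room temperature: inhibitors block the CFP/YFP signal rise when RanGTP (0.6 uM Ran, 2 mM GTP, 0.2 uM RCC1) frees Rango (0.1 uM) from importin beta (0.25 uM). Pre-read after 5 min compound exposure flags interference.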
GLA inh pH 4.5: qHTS Assay for Inhibitors of Human alpha-Galactosidase at pH 4.5; Alpha-galactosidase A (Homo sapiens), P06280; activity change, negative = inhibition, % at 105 µM; AID 1467, 2008; 230,000 tested, under 10 active; purified enzyme, 4-MU-alpha-Gal fluorescence, pH 4.5; inconclusive = small, poorly fitted or top-dose-only inhibition, or a rising curve; inactive = flat fitted curve, though single readings scatter; no compound was filed as active;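 further: 0% = full activity with enzyme and -100% = basal without enzyme; dose as in the result columns while the protocol names 77 µM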
miR-21 reporter: qHTS Assay for Modulators of miRNAs and/orActivators of miR-21 | HeLa miR-21 FLuc reporter, luciferase, 48 h | Potency, µM (series often up to 38.3 µM), inactives show at the highest dose reporter change, positive = more light | 340,000 tested, under 10 active; active = well fitted rising curve with a large enough effect; inconclusive = small, poorly fitted or top-dose-only effect; inactive = no such curve, though single readings can be large or run the other way;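 further: % of control where 0% means no effect; miR-21 action dims this reporter so a rising signal means less miR-21 action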
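HeLa miR-21-FLuc reporter line, endogenous miR-21; 2000 cells/well in DMEM/10% FBS; compound titration up to ~40uM final, 48 h, 37 degree Celsius; luciferase detection reagent, 15 min lysis, CCD luminescence.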
Rango complex inh: qHTS Assay for Inhibitors of Rango (Ran-regulated importin-beta cargo) - Importin beta complex formation | Rango CFP/YFP FRET sensor + importin beta, 45 min | AID 540263, 2011 | Importin subunit beta-1 (Homo sapiens), Q14974 | 0.031% of 340,000 active | Potency, µM (highest dose often 92.2 µM), without a hit: at the top dose inhibition of complex formation; active = rising FRET ratio curve, often small or poorly fitted; inconclusive = mostly compound fluorescence or quenching in the first reads; inactive = flat curves in all reads;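 further: potency means the concentration at half of the fitted maximal effect; 0% = DMSO wells and 100% = buffer wells lacking importin beta; nearly all actives have a fitted effect of over 15% in size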
Target sequence (Q14974 whole entry, looked up): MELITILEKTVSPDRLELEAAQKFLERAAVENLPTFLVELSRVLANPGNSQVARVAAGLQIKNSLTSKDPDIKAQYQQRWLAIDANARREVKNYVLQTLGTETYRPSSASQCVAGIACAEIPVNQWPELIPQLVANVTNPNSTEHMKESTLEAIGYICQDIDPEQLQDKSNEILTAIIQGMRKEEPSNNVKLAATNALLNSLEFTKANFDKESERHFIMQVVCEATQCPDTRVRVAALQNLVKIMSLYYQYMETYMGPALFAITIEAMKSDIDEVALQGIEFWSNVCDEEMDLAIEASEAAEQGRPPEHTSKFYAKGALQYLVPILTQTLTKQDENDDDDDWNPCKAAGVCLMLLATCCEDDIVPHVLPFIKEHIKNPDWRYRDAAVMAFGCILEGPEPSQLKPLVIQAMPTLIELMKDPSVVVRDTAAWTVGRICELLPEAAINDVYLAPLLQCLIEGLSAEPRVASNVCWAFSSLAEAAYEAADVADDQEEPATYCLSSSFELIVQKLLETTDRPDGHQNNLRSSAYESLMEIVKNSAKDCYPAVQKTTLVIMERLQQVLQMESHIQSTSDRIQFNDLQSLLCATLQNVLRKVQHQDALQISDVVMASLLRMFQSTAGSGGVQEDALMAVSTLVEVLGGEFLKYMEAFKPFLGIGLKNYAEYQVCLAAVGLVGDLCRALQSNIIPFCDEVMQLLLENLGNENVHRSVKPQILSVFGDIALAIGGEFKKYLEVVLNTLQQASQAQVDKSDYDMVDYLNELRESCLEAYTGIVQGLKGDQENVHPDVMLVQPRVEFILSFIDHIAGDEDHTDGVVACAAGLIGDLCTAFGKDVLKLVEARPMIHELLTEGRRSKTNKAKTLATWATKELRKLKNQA
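FRET biosensor Rango (snurportin 1 IBB between N-terminal EYFP and C-terminal Cerulean), 50 nM in PBS/1 mM DTT/0.02% Tween-20/0.1% BSA, preincubated 5 min RT with compound; 0.125 microM importin beta added, 45 min RT, CFP/YFP FRET ratio read.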
An asterisk follows results filed as active; ? = inconclusive; nt = not tested or not shown; & = joins results of further samples.

SMILES	Rango release inh	GLA inh pH 4.5	miR-21 reporter	Rango complex inh
Cc1nc(C)c(C(=O)NNC(=O)Nc2ccc(Cl)cc2)s1	10%	-8	1%	-0.1%
Cc1ccc(OCc2nnc(SCC(=O)Nc3cc(C)on3)n2C)cc1	-8%	2	-1%	-0.8%
O=C(Nc1cccc(S(=O)(=O)NC2=NCCC2)c1)c1ccc(OC(F)F)cc1	-17%	nt	nt	?
Nn1c(Cc2ccccc2F)nnc1SCn1nnc2ccccc2c1=O	8%	10	-11%	2.3%
CCc1ccc(/C=C2/C(=O)N(C)C(=S)N2CC(=O)OC)s1	?	-8	-3%	?
O=C(CCN1C(=O)c2cccc3cccc(c23)C1=O)Nc1ccon1	16%	4	-7%	0.7%
O=C(Nc1ccc(S(=O)(=O)N2CCOCC2)cc1)c1cc([N+](=O)[O-])ccc1Cl	-20%	nt	12%	2.6%
COc1ccc(CNC(=O)C(=O)NCCCn2ccnc2)cc1	-28%	10	-12%	4.3%
Cc1cc(C)nc(SCCN2CCOCC2)n1	1%	-3	-2%	2.5%
Cn1c(=O)c2c(nc(Oc3ccccc3)n2C)n(C)c1=O	16%	-3&5	7%&9%	4.0%
O=[N+]([O-])c1cccnc1N1CCC(c2cc(-c3ccc(Cl)cc3)n[nH]2)CC1	1%	-15	12%	-0.9%
Cc1nn2c(N)c(-c3ccccc3)cnc2c1-c1ccccc1	12%	nt	-35%	-1.9%
O=C(NCC(=O)N1CCCCCC1)c1ccc(Br)cc1	6%	nt	-43%	-0.8%
CC1CC1C(=O)OCC(=O)c1c(N)n(C)c(=O)n(C)c1=O (stereo unspecified)	15%	7	-1%	-3.8%
COc1ccc(NC(=O)N2CCN(S(C)(=O)=O)CC2)c(OC)c1	11%	1	-3%	-0.3%
C/C(=N/NC(=O)OC(C)(C)C)c1ccco1	6%	-4	-47%	-0.5%
Cc1nc2c3ccccc3nc(NNC(=O)CCC(=O)N3CCCC(C)C3)n2n1 (stereo unspecified)	12%	nt	-1%	-0.7%
O=C(CSc1ncc(-c2ccc(F)cc2)[nH]1)NCc1ccco1	-14%	-4	-20%	3.7%
COc1cc(CCC(=O)Nc2cccc(S(=O)(=O)N(C)C)c2)cc(OC)c1OC	-3%	13	5%	2.1%
Cc1ccc(C(=O)c2ccccc2C(=O)OCC(=O)N2CCCC2)cc1	2%	nt	nt	0.6%
O=C(NNC(=S)Nc1ccc(Cl)cc1Cl)c1cccnc1	14%	nt	nt	5.4%
CCOC(=O)N1CCC(N2CCN(S(=O)(=O)c3ccc(Cl)cc3)CC2)CC1	-2%	2	3%	0.3%
O=C(CNC(=O)c1cccs1)N/N=C/c1cccc(Br)c1	8%	nt	-15%	-2.5%
CCc1nnc(NC(=O)C2CCCN2S(=O)(=O)c2ccc(C)cc2)s1 (stereo unspecified)	6%	-8	0%	3.4%
O=C(NC(=S)NCc1ccccc1Cl)c1cccs1	5%	nt	nt	-0.3%
(continued)
SMILES	Rango release inh	GLA inh pH 4.5	miR-21 reporter	Rango complex inh
Cc1ccc(S(=O)(=O)NNC(=O)c2ccncc2)cc1[N+](=O)[O-]	-6%	nt	2%	12%
CC(C)OC(=O)CC(=O)CSc1nc2c(cc1C#N)CCCCCC2	?	-1	-24%	?
Cc1ccc2c(C)c(C(=O)N(Cc3ccncc3)CC3CCCO3)oc2c1C (stereo unspecified)	6%	nt	0%	2.3%
COc1ccc(S(=O)(=O)N2CCCCCC2)cc1C(=O)OCC(=O)Nc1cc(C)on1	nt	2	-4%	nt
Cc1ccc(Nc2ccc(-n3ccnc3)nn2)cc1C	-3%	0	-27%	-1.0%
Cc1cc(NC(=O)COC(=O)c2cnccn2)ccc1Br	29%	nt	nt	-0.5%
Cn1nnc2c[n+](CC(=O)c3ccc4ccccc4c3)cc(Br)c21	-4%	7	?	0.1%
Cc1cccnc1NC(=S)NC(=O)c1cncc(Br)c1	5%	-1	-34%	-4.8%
Cc1cccc(C(CC(=O)N2CCCC2)c2ccccc2)c1O (stereo unspecified)	2%	-3	-1%	2.0%
COc1ccc(/C=N/NC(=S)Nc2ccccc2)cc1COc1ccc(F)cc1	8%	-25	-16%	-0.5%
COCCn1nnnc1CN1CCOCC1	16%	8	8%	-0.4%
COc1cccc(NC(=O)CCC2CCN(C(=O)c3cccc(NC(C)=O)c3)CC2)c1	0%	nt	-5%	0.0%
Cc1ccc(/C=N/NC(=O)Cc2c(F)cccc2Cl)s1	20%	nt	-39%	1.3%
O=C(O)c1ccc(NC2=C(N3CCOCC3)C(=O)c3ccccc3C2=O)cc1	-17%	3	-21%	?
Cc1ccc(S(=O)(=O)N2CCOC23CCN(C(=O)C(=O)NCCC(C)C)CC3)cc1	0%	nt	nt	-0.1%
c1cncc(CNc2ncnc3ccc(-c4ccc5c(c4)OCCO5)cc23)c1	-1%	nt	nt	-2.4%
CC(C)Cc1nc(SCC(=O)NCc2ccccc2)n[nH]1	0%	-3	1%	4.1%
CCN(CC(=O)Nc1cccc(F)c1)CC(=O)Nc1ccccc1OC	-2%	nt	-5%	?
O=C(COc1ccccc1)NCC(=O)N/N=C/c1cc(Br)ccc1OCc1ccccc1	0%	-7	-34%	-6.0%
CC1CCC2(CC1)NC(=O)N(CC(=O)N1CCN(c3ccccc3)CC1)C2=O (stereo unspecified)	-8%	nt	nt	0.4%
COc1ccc(C2N(c3cc(Cl)ccc3OC)C(=O)C3CCCN32)c(OC)c1 (stereo unspecified)	28%	-3	-6%	5.7%
COc1ccc(C(=O)CSc2ncn[nH]2)cc1OC	0%	8	-11%	3.6%
COc1ccc(-c2ccc(=O)n(CC(=O)Nc3cccc(O)c3)n2)cc1OC	-5%	-1	-41%	5.7%
O=C(OCCN1C(=O)c2ccccc2C1=O)c1cccc(OC(F)F)c1	?	4	-4%	-2.0%
O=C(Sc1nnnn1C1CCCCC1)c1cccs1	nt	-11	0%	nt
More results follow:
SMILES	Rango release inh	GLA inh pH 4.5	miR-21 reporter	Rango complex inh
COc1ccc(C(CNC(=O)c2ccc(OCc3c(C)noc3C)cc2)N2CCCC2)cc1 (stereo unspecified)	5%	nt	nt	-3.1%
CNC(=S)N/N=C/c1ccccc1Cl	-7%	2	-15%	-0.5%
COC(=O)c1cn(C(=O)c2ccc(OC)c(OC)c2)c2ccccc12	1%	nt	10%	-1.9%
CC(NC(=O)Cn1cnnn1)c1cccc(C(F)(F)F)c1 (stereo unspecified)	-8%	nt	2%	-1.2%
CCOCCn1c2ccccc2c2nc3ccccc3nc21	?	nt	-13%	?
CN1C/C(=C\c2ccc(N3CCOCC3)cc2)C(=O)/C(=C/c2ccc(N3CCOCC3)cc2)C1	?	-4	23%	?
COc1cccc(N2CCN(c3c(C#N)c(C(F)(F)F)nn3C)CC2)c1	4%	-3	20%	-0.8%
CC1Sc2ccc(S(=O)(=O)CCC(=O)NC3CCCC(C)C3C)cc2NC1=O (stereo unspecified)	2%	nt	17%	?
Cc1ccc(S(=O)(=O)N2CCCOC2CNC(=O)C(=O)NCc2ccccn2)cc1 (stereo unspecified)	-6%	nt	-8%	-0.2%
CC(C)CCn1c(=O)c2sccc2n2c(CCCC(=O)N3CCC(N4CCCCC4)CC3)nnc12	2%	nt	-3%	-0.7%
Cn1ncc2c(=O)[nH]c(N)nc21	-24%	nt	nt	-0.6%
Cc1ccc(SCC(=O)OCC(=O)NCc2ccco2)cc1	2%	nt	nt	-0.2%
CC(=O)Nc1ccc(S(=O)(=O)NCc2ccc(C(=O)NCc3ccc(Cl)cc3)cc2)cc1	-2%	8	-3%&0%	-4.1%
Cc1cccc(OCc2ccccc2)n1	-1%	nt	nt	-0.5%
Cc1cc(OC(C)C(=O)N2C[C@H]3C[C@@H](C2)c2cccc(=O)n2C3)c2c(C)c(C)c(=O)oc2c1 (stereo partly specified)	9%	nt	6%	0.1%
CCOC(=O)c1c(NC(=O)CN(C)C2CCN(C)CC2)sc(C(=O)Nc2ccccc2)c1C	-19%	-20	-41%	7.1%
NCCNc1ccc([N+](=O)[O-])c(NC2CC2)c1	0%	-8	-1%	0.1%
CCOCCCNC(=O)C(c1ccc(OC)cc1)N(Cc1ccc2c(c1)OCO2)C(=O)CNC(C)=O (stereo unspecified)	3%	-1	-6%	2.9%
Cc1ccc(C(=O)Nc2cnc3ccccc3c2)cc1	-4%	0	?	0.4%
O=C(NCc1cccnc1)c1ccc(S(=O)(=O)N2CCCCC2)cc1	-25%	1	8%	-1.3%
COc1ccccc1-c1nc(SC)n[nH]1	-3%	-6	-18%	4.7%
CCCN(CC(=O)Nc1ccccc1OC)C(=O)CCC(=O)c1ccc(OCC)cc1	-16%	nt	nt	-6.5%
Cc1ccccc1-c1cc(C(=O)NCc2cccc(C(F)(F)F)c2)nn1CC1CC(c2cccc([N+](=O)[O-])c2)=NO1 (stereo unspecified)	2%	nt	nt	5.9%
CCOc1ccc(CCNC(=O)COC(=O)Cn2cnc3c2c(=O)n(C)c(=O)n3C)cc1OCC	5%	nt	nt	-0.2%
c1ccc(Cc2c[nH]c3ccccc23)cc1	7%	nt	4%	0.2%
The list goes on.
SMILES	Rango release inh	GLA inh pH 4.5	miR-21 reporter	Rango complex inh
CC(=O)Nc1cccc(NC(=O)CSc2ccc(-c3ccco3)nn2)c1	4%	nt	-4%	-2.8%
CCOC(=O)N1CC=C2C(C#N)=C(N)C(C#N)(C#N)[C@H](c3cccs3)[C@H]2C1	?	2	-2%	?
NC(=O)CN1CCN(Cc2ccc3c(c2)OCO3)CC1	21%	nt	-2%	4.3%
CN(C)c1ccc(CN2CCCC(O)C2)cc1 (stereo unspecified)	-2%	-1	-6%	-0.3%
OCCNCC(O)Cn1ccc2ccccc21 (stereo unspecified)	0%	-6	0%	-4.0%
O=C(NC1CCCC1)C(c1cccnc1)N(C(=O)c1csnn1)c1ccccc1Cl (stereo unspecified)	-9%	nt	1%	-4.3%
O=C(CSCC(=O)NN=Cc1ccccc1)NN=Cc1ccccc1	-20%	nt	nt	-3.0%
O=[N+]([O-])c1cccc(S(=O)(=O)N2CCCCC2)c1	19%	nt	-1%	-1.3%
CCc1nc2cccnc2n1-c1ccc(CC(=O)NC(C)CC)cc1 (stereo unspecified)	13%	nt	0%	0.1%
COCCNC(=O)c1ccc2c3n(nc2c1)-c1ccc(C)cc1CO3	-7%	8	-51%	-2.9%
Oc1[nH]c2ccccc2c1N=Nc1c(F)c(F)c(C(F)(F)F)c(F)c1F	-5%	nt	-6%	-0.9%
CC(=O)N1CCN(CCN=CC2=C(O)CC(c3ccc(Cl)cc3)CC2=O)CC1 (stereo unspecified)	14%	-1	2%	-4.1%
Cc1ccc(C2C3=C(CC(C)(C)CC3=O)Nc3onc(C)c32)cc1 (stereo unspecified)	-18%	8	8%	-0.3%
CCc1ccc(Nc2cc(C(=O)NCCCN3CCOCC3)c3ccccc3n2)cc1	-12%	-6	17%	3.9%
CSc1nc(-c2ccco2)nn1C(=O)c1cccs1	22%	-4	-5%	0.8%
CC(CCc1ccccc1)N(C)CC(O)c1cccc([N+](=O)[O-])c1 (stereo unspecified)	21%	-14	-1%	-1.3%
CC(=O)Nc1ccccc1C	-4%	nt	nt	-0.6%

Record cards, as listed above. Order of values: Rango release inh | GLA inh pH 4.5 | miR-21 reporter | Rango complex inh
Nn1c(Cc2ccccc2F)nnc1SCn1nnc2ccccc2c1=O reads 8% | 10 | -11% | 2.3%
O=C(Nc1cccc(S(=O)(=O)NC2=NCCC2)c1)c1ccc(OC(F)F)cc1 reads -17% | nt | nt | ?
C/C(=N/NC(=O)OC(C)(C)C)c1ccco1 reads 6% | -4 | -47% | -0.5%
O=C(CCN1C(=O)c2cccc3cccc(c23)C1=O)Nc1ccon1 reads 16% | 4 | -7% | 0.7%
Cc1ccc(SCC(=O)OCC(=O)NCc2ccco2)cc1 reads 2% | nt | nt | -0.2%

This is a subset, so the mix of outcomes need not match the whole.
